Screening results (PubChem BioAssay)
NPYLR7 agonist = agonists of mosquito NPYLR7 receptor, primary screen, cell-based, Aedes aegypti, calcium fluorescence, mosquito biting behavior; hit rate 0.15% among 270,000; activation, % at 10 µM; HEK293T NPYLR7/Galpha15, GCaMP6s calcium fluorescence; in the data active = activation above about 40%;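 also: 0% = vehicle and 100% = reference agonist at the receptor; some compounds past the cut are filed as inactive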
NPYLR7 agonist max-min = second read-out of NPYLR7 agonist, no call of its own (marks repeat the call); activation, %; measured here: Max-Min RFU normalised activation; some inactives read as strong as hits;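 span of the calcium signal over five minutes; 0% = vehicle and 100% = native peptide agonist; compound fluorescence can raise it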
* = called active by the depositor; & = joins results of further samples. Not all compounds are listed (hit frequency here may not be typical).

SMILES | NPYLR7 agonist | NPYLR7 agonist max-min
Cc1ccc(-n2c(=O)[nH]c3c(C(=O)Nc4cc(C)cc(C)c4)cn(C)c3c2=O)cc1 | 8 | 7
N#Cc1cccc(C(=O)N2C[C@H](Oc3ccccn3)[C@H]3C[C@@H]2CC[C@H]3N2CCOCC2)c1 | 14 | 22
CC(C)CN(Cc1cccc(C#N)c1)Cc1cccn1Cc1cccc(C(F)(F)F)c1 | 1 | 1
COc1cccc2cc(C(=O)Nc3cccc(F)c3)c(=O)oc12 | 5 | 15
COc1ccc(/C=C2\N=C(c3cncc(Br)c3)OC2=O)c(OC)c1OC | 2 | 3
COc1ccc(C(=O)N2CCN(C(C(=O)Nc3ccc4c(c3)OCO4)C3CCCC3)CC2)c(OC)c1 (centres undefined) | 14 | 16
Clc1ccc(CNc2c3c(nc4nncn24)CCC3)cc1 | 2 | 1
O=C1OC(c2ccc(O)cc2)(c2ccc(O)cc2)c2ccccc21 | -4 | -7
Cc1nc(NCCNC(=O)c2cccc(F)c2)cc(-n2cccn2)n1 | -7 | -9
CCc1nc(C)c(C(=O)N2CCCN(C)C3(CCN(C)CC3)C2)o1 | 4 | 2
O=S(=O)(c1ccc2ccccc2c1)N1CCC(c2c[nH]c3ccccc23)CC1 | 7 | 11
COC(=O)c1ccc(N2C(=O)CSC2c2ccccc2)cc1 (centres undefined) | -2 | -3
Cc1cccn2c(CNCc3ccccc3Cl)c(C(=O)N3CCCCC3)nc12 | -5 | 0
COc1ccc(OC)c(C(=O)CSc2nnc(-c3ccc(F)cc3)n2-c2ccc(C)cc2)c1 | 5 | 11
CCOC(=O)[C@@H]1[C@@H](O)C(=O)N(Cc2ccccc2)C12CCN(C(=O)c1ccccc1OCC)CC2 | 24 | 35
COc1cccc(-c2cc(C(=O)N3CC4(C)CC3CC(C)(C)C4)n(-c3ccccc3Cl)n2)c1 (centres undefined) | 0 | -2
COc1cccc(C2CCN(C(=O)c3cn4c(n3)CNCC4)C2)c1OC (centres undefined) | -5 | -9
CC(C)c1cc(C(=O)N2CCCC(C(=O)c3ccc4ccccc4c3)C2)on1 (centres undefined) | 0 | -1
Cc1ccc(C(=O)Nc2ccc(N3CCC(NCc4ccc(C)o4)CC3)cc2)c(C)c1 | 17 | 5
COc1ccccc1N1CCC(NC(C)c2cnn(-c3ccccc3)c2C)CC1 (centres undefined) | 13 | -3
COc1cc(OC)cc(C(=O)NC2CCCC(C)C2C)c1 (centres undefined) | 0 | -2
COC(=O)c1ccc(-c2noc(CN3CCSCC3)n2)cc1 | 6&-1 | 4&-3
Cn1c2ccccc2n2c(=N)c3cc4ccccc4nc3c(C#N)c12 | -3 | -8
CCC(C)NC(=O)c1nn(-c2ccc(C(C)C)cc2)c(=O)n(Cc2ccccc2C)c1=O (centres undefined) | -1 | 6
CC(C)NC(=O)C(=O)N1CCNCC1 | 5 | 7

More compounds follow:
SMILES | NPYLR7 agonist | NPYLR7 agonist max-min
CC(C)Cc1noc(C2CCCN(C(=O)c3c(O)cccc3O)C2)n1 (centres undefined) | -3 | -7
CC(C)COc1nc(-c2ccc(Cl)c(Cl)c2)n(-c2cccc(N)c2)n1 | -5 | -13
O=C(Cc1csc(NC(=O)c2ccsc2)n1)NCCn1nc(-c2ccco2)ccc1=O | 5 | 3
O=C1NC(=Nc2ccccc2)SC1Cc1cccc([N+](=O)[O-])c1 (centres undefined) | -6 | -9
COc1ccc(-c2nn(-c3ccccc3)cc2CN2CCOCC2)c(F)c1 | 5 | 0
C=CCN1C(=O)NC(c2cc(OC)cc(OC)c2)C2=C1CN(C1CC1)C2=O (centres undefined) | 3 | 14
CN1CCC(NC(=S)N(Cc2ccco2)c2ccccc2)CC1 | 2 | 0
COC(=O)c1sccc1S(=O)(=O)Nc1ccc(OC)cc1 | -5 | -3
Cc1ccc(NC(=O)CSCC(=O)N2CCCCC2C)cc1 (centres undefined) | 0 | 0
CC(C)Cn1c(CN(C)CC2(c3ccccc3)CC2(C)C)cnc1S(C)(=O)=O (centres undefined) | 4 | 1
CCCc1ccc(-c2ccc(C(=O)Nc3nnc(C)s3)cc2)nc1 | 3 | 8
Cc1cc(C)c(S(=O)(=O)N2CCC(C(N)=O)CC2)c(C)c1 | 10 | 11
CCCc1c(C(=O)N2CCC(C(=O)N3CCCC3)CC2)[nH]c(C)c1C(C)=O | -4 | -6
CCc1ccc(-n2c(Cc3cccnc3)n[nH]c2=O)cc1 | 6 | 2
Cc1cccc(-c2cc(N)n(-c3ccc(C(=O)NC4CCCC(C)C4)cc3)n2)c1 (centres undefined) | 15 | 9
Cc1ccccc1C(=O)NC1(C(F)(F)F)C(=O)Nc2c1c(=O)[nH]c(=O)n2CCc1ccccc1 (centres undefined) | -9 | -18
CCOC(=O)C1(O)Oc2cc(OC)cc(OC)c2C(=O)C1c1ccccc1 (centres undefined) | -10 | -14
COC(=O)c1sccc1S(=O)(=O)Nc1cc(Cl)ccc1OC | 3 | -2
Cc1ccc(S(=O)(=O)N2CCN(c3ccc([N+](=O)[O-])cn3)CC2)c(C)c1 | 3 | -3
O=C(O)COc1ccc(Cl)cc1CN1CCC2(CCOCC2)CC1 | 3 | 1
CCC(CNS(=O)(=O)c1ccc(F)cc1Cl)c1ccccc1 (centres undefined) | 1 | 4
Cc1cccc(N2CCC(N3C[C@H]4C[C@H](O)[C@H](O)C[C@H]4C3)CC2)c1C | -2 | -11
Cc1cc(C(=O)N2CCC(C(=O)Nc3cccc(-c4cccc(Cl)c4)c3)CC2)n[nH]1 | -7 | -8
CCc1nc(C(C#N)C(=O)/C=C/c2ccc(NC(C)=O)cc2)sc1C (centres undefined) | 2 | 2
Cc1ccc2nc(N3CCCCC3)c(C=C3SC(=S)N(Cc4ccco4)C3=O)c(=O)n2c1 | 4 | 3

(listing goes on)
SMILES | NPYLR7 agonist | NPYLR7 agonist max-min
Cc1ccc(-c2[nH]c3ccccc3c2SCCN)cc1 | -8 | -14
COc1cc(C(=O)Nc2cc(C3CC3)nn2-c2nc(C)cc(=O)[nH]2)cc(OC)c1OC | 2 | 2
CC(C)CN(Cc1cccn1Cc1ccccc1Cl)C(=O)CN(C(=O)/C=C/c1ccccc1)C(C)C | -8 | 1
COC[C@H]1CCCN1C(=O)COc1c(C)ccc(C)c1C | -5 | -8
Cc1nn(Cc2ccccc2Cl)c(C)c1C(=O)NN1CCCCC1 | -22 | -22
C=CC[C@@H]1CC=C[C@@H](C)N1C(=O)Cn1cc(C)c(=O)[nH]c1=O | 6 | 3
CC(C)CCSc1nnc2[nH]c(=O)cc(N)n12 | 7 | 7
Cn1cccc1C(=S)N=P(N1CCOCC1)(N1CCOCC1)C(C)(C)C | -4 | -9
Cc1ccc(C(CNC(=O)c2cnn3c2CCCC3)N2CCOCC2)o1 (centres undefined) | 3 | 5
CCC(C)N1C(=O)C(Cc2ccccc2)NC12CCN(C(=O)NC(C)(C)C)CC2 (centres undefined) | 5 | 3
CCN(CC)CCCC(C)NC(=O)c1ccc(CSc2nc(Cl)cc(N3CCOCC3)n2)cc1 (centres undefined) | -4 | 2
CCCc1cc(NCC2(N(C)C)CCSC2)nc(C)n1 (centres undefined) | 15 | 4
CC(C)CNC(=O)Nc1c[nH]c2ccccc12 | -4 | -8
CC1C(=O)N(c2ccc(F)cc2F)CCN1C(=O)C(C)(C)C (centres undefined) | 20 | 20
Cc1cc(Oc2ccc(Br)cc2)n2ncnc2c1 | 7 | 1
Cc1cc(C)[n+]2n1C(=O)C(c1ccccc1)C2=O (centres undefined) | 4 | 6
Cc1nnc(SCc2ccccn2)c2c1cnn2-c1ccc(F)cc1 | -18 | -24
Nc1ccc2c(c1)C(=O)NCC2 | -4 | -1
Cc1nc(CN(C)C(=O)c2ccc(C)c(NC(=O)C3CCCC3)c2)no1 | -2 | -4
Cc1cccc(C(=O)N(C)CC(C)(C)CNC(=O)OC(C)(C)C)n1 | 1 | 0
CC1C(=O)N(c2ccc(Br)cc2)CCN1C(=O)C1CCC1 (centres undefined) | 1 | 3
Cc1nn(C)c(C)c1-c1ccnc(NCc2scnc2-c2ccccc2)n1 | 5 | 1
Cc1cnc(C)c(N2CCN(Cc3nc(-c4ccc5c(c4)OCO5)no3)CC2)n1 | 17&3 | 8&-3
CCc1nc2n(n1)C(=O)C(C(c1cccc(C)c1)N1CCCCC1)S2 (centres undefined) | -3 | 29
Cc1ccc(Nc2nnc(C(C)(C)C)c(=O)[nH]2)cc1 | 1 | 0

Next part:
SMILES | NPYLR7 agonist | NPYLR7 agonist max-min
CCOC(=O)NC(O)C(Br)(Br)Br (centres undefined) | -5 | -13
Cc1ccc2c(c1)[C@H]1OCC[C@H]1[C@@H](c1ccncc1)N2 | -1 | -4
CC(=O)Nc1ccc(Cl)c(C(=O)NC(CCn2ccnc2)c2ccccc2)c1 (centres undefined) | 4 | 5
CN(NC(=O)C1CC12c1ccccc1-c1ccccc12)c1ccccc1 (centres undefined) | -4 | -10
CN(C)CCN1CCN(c2cc(-c3ccc(C(C)(C)C)cc3)nc3ccnn23)CC1 | -1 | -3
CCOC(=NC1CC1)NC(=O)c1ccc(Cl)c(Cl)c1 | -5 | -1
COc1cc(NCc2nccn2Cc2ccccc2)ncn1 | 7 | 4
CCCOc1nn(CCC)cc1C(=O)Nc1ccc(C(C)C)cc1 | 5 | -6
Cc1ccc2nc(C3CCCN3C(=O)c3cn(CCC4CCCCC4)nn3)[nH]c2c1 (centres undefined) | 13 | 0
COCc1c(Br)c(C)nc(OCC(=O)N/N=C\c2ccc(-c3ccc(I)cc3)o2)c1C#N | 4 | 6
Cc1c(C(=O)N(C)Cc2ccc(F)cc2)sc(=O)n1CCc1ccccc1 | -1 | -3
Oc1cccc(CN[C@@H]2c3ccccc3C[C@@H]2O)c1 | -6 | -6
O=c1[nH]cnc2c1sc1ncccc12 | 5 | 10
CCCc1cnc(C)nc1N1CCC2(CCCO2)CC1 | 7 | 5
Cc1nc(CN(C)Cc2csc(-c3ccccc3)n2)co1 | 4 | 2
O=C1CCC2(CCN1)CCN(C(=O)CCN1C(=O)COc3ccccc31)CC2 | 2 | -3
CC1CCCN(C2c3ccccc3-c3ccccc32)C1 (centres undefined) | 1 | 1
CC(C)(C)OC(=O)N1CCC(c2ccc(C(F)(F)F)cc2)C(O)C1 (centres undefined) | -4 | -5
c1ccc2c(NCC3CCCO3)ncnc2c1 (centres undefined) | 5 | 3
Cc1ccc(NC2=CC(=O)c3sc(C)nc3C2=O)cc1 | 7 | 4
Cc1ccnc(SCc2cc(=O)c(OC(=O)c3cccc([N+](=O)[O-])c3C)co2)n1 | -18 | -18

Exported with values under each structure: four of the compounds above.
The line under a structure holds: NPYLR7 agonist	NPYLR7 agonist max-min
> COCc1c(Br)c(C)nc(OCC(=O)N/N=C\c2ccc(-c3ccc(I)cc3)o2)c1C#N
  4	6
> Cc1c(C(=O)N(C)Cc2ccc(F)cc2)sc(=O)n1CCc1ccccc1
  -1	-3
> Oc1cccc(CN[C@@H]2c3ccccc3C[C@@H]2O)c1
  -6	-6
> O=c1[nH]cnc2c1sc1ncccc12
  5	10

Five of the compounds above, as comma-separated lines:
SMILES,NPYLR7 agonist,NPYLR7 agonist max-min
Cc1nc(CN(C)Cc2csc(-c3ccccc3)n2)co1,4,2
O=C1CCC2(CCN1)CCN(C(=O)CCN1C(=O)COc3ccccc31)CC2,2,-3
CC1CCCN(C2c3ccccc3-c3ccccc32)C1 (centres undefined),1,1
CC(C)(C)OC(=O)N1CCC(c2ccc(C(F)(F)F)cc2)C(O)C1 (centres undefined),-4,-5
c1ccc2c(NCC3CCCO3)ncnc2c1 (centres undefined),5,3
